# GALR2 agonist – GALR2 (human) receptor agonism | 140,000 compounds, 0.48% hits | O43603 | GALR2-expressing cells, agonist activation read-out | activation, %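 (tested at 5 µM)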 | AID 803;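 active means above mean plus 3 SD of all compounds, about 5% in these data, not always enough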;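 further: 0% = vehicle buffer wells and 100% = reference agonist at full effect; tested in CHO reporter cells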
# Target sequence (O43603 whole entry, looked up): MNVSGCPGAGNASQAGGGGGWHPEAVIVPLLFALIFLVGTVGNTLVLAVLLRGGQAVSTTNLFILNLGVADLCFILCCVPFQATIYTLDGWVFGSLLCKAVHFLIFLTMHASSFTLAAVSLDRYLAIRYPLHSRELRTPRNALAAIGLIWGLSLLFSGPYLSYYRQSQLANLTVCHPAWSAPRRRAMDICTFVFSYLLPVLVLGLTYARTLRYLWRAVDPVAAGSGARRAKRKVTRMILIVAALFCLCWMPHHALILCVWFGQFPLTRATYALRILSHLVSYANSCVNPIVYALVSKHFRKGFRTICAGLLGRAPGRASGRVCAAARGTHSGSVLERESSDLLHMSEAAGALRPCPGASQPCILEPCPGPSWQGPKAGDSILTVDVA
# HSV augment – increases HSV replication in cells | HSV replication augmentation in cells, fold increase | maximum fold increase | 220,000 compounds, 0.005% hits;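 active means peak rise of 1.5-fold or more in the series; tested in PC3 cells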;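 further: first round at 10 µM; read as green reporter fluorescence; hits show the peak of a series up to 25 µM; 1 = signal of infected wells without compound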
# INS promoter inh – TRM-6 insulin promoter activity inhibition | TRM-6 cells (human fetal islet line), insulin promoter-eGFP reporter, imaging; reporter expression induced with tamoxifen | inhibition, % at 2 µM | 130,000 compounds, 0.9% hits | AID 1273;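 active means inhibition above the mean plus 3 SD, with well images judged a real hit on visual review, cut at about 60% in these data, passing the limit was not always enough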
# RGS16-Gao HTS – modulates binding between human RGS16 and Galphao. O15492+P09471. 220,000 compounds, 0.38% hits. bead-based flow cytometry RGS16-Galphao binding, fluorescence; actives lie on both sides. binding response (% of control), % at 10 µM;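 active means below 25% or above 175%, edge rows of some plates excepted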;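 further: Galphao activated by GDP with aluminum fluoride before binding; 100% = wells without compound and 0% = beads without RGS; some results beyond the cut were filed as inactive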
# Target sequence (O15492 whole entry, looked up): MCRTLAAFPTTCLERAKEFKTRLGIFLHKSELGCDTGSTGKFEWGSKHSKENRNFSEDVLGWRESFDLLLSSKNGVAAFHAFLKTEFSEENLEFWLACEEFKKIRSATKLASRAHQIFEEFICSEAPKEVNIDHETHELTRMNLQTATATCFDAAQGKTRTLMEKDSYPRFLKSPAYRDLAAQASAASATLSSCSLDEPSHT
# Target sequence (P09471 whole entry, looked up): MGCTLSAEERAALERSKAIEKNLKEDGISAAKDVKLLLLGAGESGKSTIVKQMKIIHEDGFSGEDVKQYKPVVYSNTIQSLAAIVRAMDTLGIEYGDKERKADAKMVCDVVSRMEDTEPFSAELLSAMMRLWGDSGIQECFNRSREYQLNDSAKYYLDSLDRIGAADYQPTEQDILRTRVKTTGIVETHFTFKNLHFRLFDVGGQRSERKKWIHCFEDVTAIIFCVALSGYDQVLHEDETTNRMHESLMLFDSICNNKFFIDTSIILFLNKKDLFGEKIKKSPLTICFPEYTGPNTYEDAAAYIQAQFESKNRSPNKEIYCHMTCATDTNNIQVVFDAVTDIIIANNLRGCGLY
# PKD1 kinase inh – blocks activity of human protein kinase D1; AID 797; Q15139; PKD1 kinase fluorescence polarization assay; inhibition, %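 (about 10 µM by stock and volumes)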; 200,000 compounds, 0.056% hits;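 active means inhibition of 50% or more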;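 further: controls were vehicle for no effect and a reference inhibitor for full effect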
# INS promoter inh cell count – recorded beside INS promoter inh, whose call it bears; normalized cell count, %; measured here: cell count, toxicity; reference of the scale not given here;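 cells exposed to compound for 48 h; stained nuclei by imaging scaled within each plate; lower means fewer cells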
# HSV augment primary fold – also measured in HSV augment; calls as there; fold increase; compound at 10 µM; measured here: primary screen fold increase 10 uM; tested in PC3 cells;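 GFP signal in the first replicate; 1 = infected wells without compound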
# * hit, by the source's call; i = inactive; nt = not tested or not shown.
SMILES,GALR2 agonist,HSV augment,HSV augment primary fold,INS promoter inh,INS promoter inh cell count,RGS16-Gao HTS,PKD1 kinase inh
CCOC(=O)N1CCC(N(CCCOC)C(=O)Nc2cccc(OC)c2)CC1,0.5,i,1.1,-62,54,84,-15
CCc1ccc(Nc2nnc(SCC(=O)N(C)CC(=O)Nc3ccccc3CC)s2)cc1,0.5,i,0.92,27,138,108,-4
CCOC(=O)N1CCN(C(=O)C2CCN(Cc3nc(-c4ccccc4C)oc3C)CC2)CC1,-2.0,nt,nt,nt,nt,112,-11
COc1ccc(C(F)(F)F)cc1N/C=C\c1nnnn1-c1ccccc1,-1.9,i,0.82,-5,184,100,-7
CC(NC(=O)OCc1ccccc1)C(=O)NCC(=O)NC(Cc1ccc(OC(C)(C)C)cc1)C(=O)OC(C)(C)C (configuration not stated),-1.5,i,0.97,-7,55,112,-6
COc1ccc(OC)c(-n2c(SC)nnc2-c2c[nH]c3ccccc23)c1,-2.2,i,0.97,nt,nt,100,-3
O=C(CCN1CCCCC1)NCC1OCCc2ccccc21 (configuration not stated),-1.5,i,1.1,12,120,112,4
COc1ccc(CCn2nnnc2C(C(C)C)N2CCN(c3ncccn3)CC2)cc1OC (configuration not stated),0.3,nt,nt,-170,127,102,-13
CCOC(=O)c1cn2nc(Oc3cccc(C(F)(F)F)c3)ccc2n1,nt,i,0.9,nt,nt,102,nt
Cc1ccc(C(=O)OCc2ccc3c(c2)OCO3)cc1S(=O)(=O)N1CCCCC1,-2.0,i,0.93,18,139,105,-8
Cc1ccc(N(CC(=O)Nc2ccc(F)c(Cl)c2)S(=O)(=O)c2c(C)noc2C)cc1,0.8,i,0.9,nt,nt,91,6
Cc1ccc(NC(=O)c2cccc(OC(F)F)c2)c(OC(F)F)c1,-0.2,i,0.94,-3,100,57,0
CCOc1ccc(/C=N/OCC(=O)Nc2ccc(OCc3ccccc3)cc2)cc1OC,0.2,i,0.92,-57,99,104,-9
CCOC(=O)c1cn(CC)c2ccc(S(=O)(=O)N3CC(C)CC(C)C3)cc2c1=O (configuration not stated),-3.2,nt,nt,67,60,110,2
O=P(O)(CN1CCCCC1)CN1CCCCC1,-2.7,i,1,-19,119,103,6
CCCN(CC(=O)Nc1ccc(Cl)cc1Cl)C(=O)/C=C/c1cc(OC)ccc1OC,-0.9,i,0.97,nt,nt,111,-7
O=c1c2c(nc3c(-c4ccccc4)c[nH]n13)CCC2,-3.5,i,0.95,54,87,96,10
COc1ccc(C(NC(=O)CC(C)C)NC(=O)CC(C)C)cc1OC,-0.7,i,0.9,-30,83,103,0
O=C(Nc1ccc(SC(F)F)cc1)c1ccc(F)cc1,nt,i,0.95,-22,158,99,-7
CC(=O)Oc1cccc(/C=C2\Sc3ccccc3C2=O)c1,nt,i,1.1,nt,nt,106,nt
CC(C)N1C(=O)C(O)(C2COC(C)(C)CC2=O)c2ccccc21 (configuration not stated),nt,i,0.95,nt,nt,102,2
CCOC(=O)N1CCN(C(=O)CSc2nc(CC)nc3c2c(=O)n(C)c(=O)n3C)CC1,nt,i,0.94,nt,nt,97,nt
CNc1ncc(C(=O)c2ccc(F)cc2)s1,nt,i,1.1,nt,nt,98,-2
CCN(C(=O)c1c(OC)cccc1OC)c1nnc(-c2cccnc2)s1,-1.0,i,0.98,nt,nt,101,-16
Cc1ccc(/C=C/C(=O)NC(=S)Nc2ccccc2C(=O)NC2CCCCC2)cc1,-1.6,i,0.82,-7,94,108,0
O=C(CSCc1ccccc1Cl)Nc1c[nH]c(=O)[nH]c1=O,-0.4,i,0.97,21,131,104,2
COCCCNCCOc1ccc(C(C)(C)c2ccccc2)cc1,-0.6,i,0.64,19,121,102,2
CC(NC(=O)c1ccccc1)C(=O)OCC(=O)N1c2ccccc2Sc2ccccc21 (configuration not stated),0.0,i,1.1,-7,50,108,-7
CCOC(=O)Cc1csc(NS(=O)(=O)c2ccccc2)n1,-0.1,i,1.1,-5,135,112,-1
CC(=O)Nc1ccc(NS(=O)(=O)c2cc(-c3n[nH]c(=O)c4ccccc34)ccc2C)cc1,nt,i,0.95,nt,nt,100,nt
COc1c2ccoc2nc2c(OC)c(O)ccc12,nt,i,0.9,nt,nt,105,3
Cc1ccc(C(NC(=O)N2CCOCC2)C(Cl)(Cl)Cl)cc1F (configuration not stated),-0.2,i,1.2,nt,nt,108,-6
COc1cccc(-c2nnc3n2N=C(C(C)(C)C)CS3)c1,-1.9,i,0.47,nt,nt,52,-1
COC(=O)c1c(C)n(-c2ccc(C)cc2)c2ccc(O)cc12,-0.7,i,0.95,15,80,106,5
O=C(O)COc1ccccc1/C=N/NC(=O)CSc1nc2ccccc2n1Cc1ccc(Cl)cc1,nt,i,1,nt,nt,98,nt
CCCCn1c(=N)n(CC(O)COc2ccccc2)c2ccccc21 (configuration not stated),-0.8,i,0.68,nt,nt,107,1
Cc1ccccc1C(=O)NNC(=O)CSc1nc2ccccc2c(=O)[nH]1,nt,i,1.1,nt,nt,102,nt
O=C(Nc1ccc2ccccc2c1)C(=O)C1C(=O)Nc2ccccc21 (configuration not stated),nt,i,1,nt,nt,103,nt
COc1ccc(/C=N/Nc2ccccc2)cc1Cn1nc(C)c([N+](=O)[O-])c1C,-0.5,i,0.92,21,60,101,-2
O=C(Nn1cnnc1)C1Cc2ccccc2CN1S(=O)(=O)c1ccc(F)cc1 (configuration not stated),-1.0,i,0.69,38,144,102,-6

# Profiles, looked up by structure. Order of values: GALR2 agonist | HSV augment | HSV augment primary fold | INS promoter inh | INS promoter inh cell count | RGS16-Gao HTS | PKD1 kinase inh
# Shown for COC(=O)c1c(C)n(-c2ccc(C)cc2)c2ccc(O)cc12 : -0.7 | i | 0.95 | 15 | 80 | 106 | 5
# Shown for CCOC(=O)N1CCN(C(=O)CSc2nc(CC)nc3c2c(=O)n(C)c(=O)n3C)CC1 : nt | i | 0.94 | nt | nt | 97 | nt

# (next part)
SMILES,GALR2 agonist,HSV augment,HSV augment primary fold,INS promoter inh,INS promoter inh cell count,RGS16-Gao HTS,PKD1 kinase inh
COc1ccc(NC(=S)N/N=C2\CC(C)(C)Oc3ccc(O)cc32)cc1,-0.9,i,0.92,nt,nt,104,2
CN(CC(=O)NCc1ccc(Cl)cc1)S(=O)(=O)c1cccc2nsnc12,-0.3,i,0.99,0,108,106,-14
CCCCn1c(=O)n(CC(=O)Nc2c(CC)cccc2CC)c(=O)c2c1nc(CO)n2CCC,-0.7,i,1,nt,nt,97,-8
S=C(NCc1ccccn1)Nc1ccc(Cl)c(Cl)c1,-1.6,nt,nt,nt,nt,100,-13
Cn1c(=O)c2c(ncn2CC(=O)N/N=C/c2ccco2)n(C)c1=O,-1.5,i,1.1,-3,47,171,-2
CNc1ccc(Br)cc(C(=O)/C=C/c2ccc(OC)cc2OC)c1=O,-0.5,i,0.98,24,83,95,-2
Cc1ccc(-n2c(O)c(/C=C3/C(c4ccccc4)=Nc4ccccc43)c(=O)[nH]c2=O)cc1,-1.3,i,0.95,nt,nt,95,-2
Cc1cc(C)n(-c2nnc3c4ccccc4n(C)c3n2)n1,nt,i,0.99,nt,nt,100,nt
Cc1ccc(NC(=O)C2=C(O)c3ccccc3N(C)S2(=O)=O)cc1,-2.6,i,0.92,nt,nt,99,-16
COc1ccc(C(=O)C(c2ccccc2)N2CCOCC2)cc1 (configuration not stated),0.2,i,0.97,29,81,98,8
COC(=O)c1ccc(-c2ccc(F)cc2)nc1C,-0.6,i,0.92,nt,nt,103,1
CC(=O)NCCC(=O)N1CCc2c([nH]c3ccccc23)C1c1cccc(C)c1 (configuration not stated),nt,i,0.99,nt,nt,105,-2
Nc1ccc(-c2nc3ccc(N)cc3s2)cc1,nt,i,0.83,nt,nt,103,nt
CCN(CC)C(=O)Nc1cnc2ccccc2c1,0.1,i,1.1,-33,162,103,-3
C[C@@H](C(=O)OCn1nnc2ccccc2c1=O)N1C(=O)C2CCCCC2C1=O (some centres not stated),nt,i,0.99,29,143,102,1
Cc1cc(C)c(OCCN(C)Cc2ccccc2)c(Br)c1,nt,i,1,14,56,100,-4
COc1ccc(S(=O)(=O)c2nnn(-c3ccccc3Cl)c2N)cc1,nt,i,0.85,73*,125*,103,-9
CN(CC(=O)Nc1ccc(S(N)(=O)=O)cc1)Cc1ccccc1F,nt,i,0.99,12,95,109,-1
O=c1[nH][nH]c(C(F)(F)F)c1C=Nc1cccc(Cl)c1,-0.4,i,0.89,nt,nt,107,7
CN(C)c1ccc(/C=N/NC(=O)c2sccc2-n2cccc2)cc1,nt,i,0.94,-73,100,93,-5
CCCCOC(=O)C(C#N)c1nc2ccccc2nc1N1CCOCC1 (configuration not stated),-1.6,i,1.1,nt,nt,99,6
CN(NS(=O)(=O)c1ccc(F)cc1)c1ncc(C(F)(F)F)cc1Cl,nt,nt,nt,-21,184,98,-5
CC(=O)ON1C(C)(C)CC(OC(=O)c2ccccc2)CC1(C)C,-0.8,i,1,4,107,95,-8
O=C(N/N=C(\c1ccccc1)c1cccnc1)C(O)(c1ccccc1)c1ccccc1,-0.8,i,0.84,20,86,98,-9
Cc1nnc(N2C(=O)C(O)=C(C(=O)c3ccco3)C2c2cccc3ccccc23)s1 (configuration not stated),nt,i,1.1,nt,nt,105,nt
COC(=O)CSC1=C(C#N)C(c2ccc(F)cc2)CC(=O)N1 (configuration not stated),0.2,i,1.1,nt,nt,94,-6
COc1ccc2[nH]cc(CCNS(=O)(=O)c3ccc(C)cc3)c2c1,nt,i,1,nt,nt,100,nt
CC(=O)Nc1ccc(C(O)(C(F)(F)F)C(F)(F)F)cc1,nt,i,1,-57,148,103,-3
COC(=O)[C@H](C)NC(=O)Nc1ccc(OC(F)(F)F)cc1,-1.1,i,1.1,47,74,290,-5
CCOc1ccc(S(=O)(=O)N(C)CCO)cc1-c1nc2c(C(C)(C)C)nn(C)c2c(=O)[nH]1,3.2,nt,nt,24,174,104,-1
CC1(C)NC(=O)N(CCCCOc2ccc3ccccc3c2Cl)C1=O,-2.0,i,0.64,nt,nt,95,2
Cc1cccc(NC(=O)c2ccc(S(=O)(=O)C(F)F)cc2)c1C,-2.0,i,0.93,-3,76,111,4
CCOC(=O)CSc1nc2ccccc2c(=O)n1C1CCCC1,-2.4,i,0.95,33,60,107,0
CCc1ccccc1NC(=S)N(CCN1CCCCC1)Cc1ccco1,nt,i,0.91,-80,126,98,0
OC(Cn1cncn1)c1ccc(Cl)cc1 (configuration not stated),-2.1,i,0.9,47,89,102,-3
Nc1cc(=O)nc(SCC(=O)N(C2CCCCC2)C2CCCCC2)n1-c1ccccc1,-0.7,i,0.83,nt,nt,104,-8
CCCCN(C)C1CCN(C(=S)Nc2ccc(OC)cc2)CC1,nt,i,0.96,0,128,104,-2
O=C(Nc1ncc(Cc2cccc(Cl)c2)s1)C1CCCO1 (configuration not stated),0.1,i,1.1,-15,88,112,2
CCN(CC)S(=O)(=O)c1ccc(Cl)c(C(=O)Nc2nncs2)c1,-1.4,i,0.98,nt,nt,103,-1
COc1cc(/C=N/NC(=O)CC23CC4CC(CC(C4)C2)C3)cc(Br)c1OCC(=O)N(C)C,1.5,i,0.68,15,85,100,-7
CC(C)[C@H](NC(=O)c1ccc(C(C)(C)C)cc1)C(=O)Nc1nnc(C2CC2)s1,-0.3,i,0.89,5,110,85,2
Cc1nc2c3cc(F)ccc3n(Cc3ccccc3)c2s1,0.9,i,0.62,53,76,137,-2
Cc1ccc2oc(-c3ccc(NC(=O)c4cccnc4)cc3)nc2c1,1.7,i,0.97,-9,156,102,5
Cc1ccc(C(=O)NCC(=O)N2CCN(S(=O)(=O)c3cccs3)CC2)s1,nt,i,0.88,-21,150,101,2
CCC(c1nnnn1Cc1ccccc1)N(Cc1ccco1)Cc1cc2cc(OC)ccc2[nH]c1=O (configuration not stated),0.2,i,0.96,nt,nt,107,-11
C#CCO[C@@H]1C[C@H](n2cnc3c(=O)[nH]c(NC(=O)C(C)C)nc32)O[C@@H]1CO,nt,i,0.83,nt,nt,80,nt
CCN(CC)CCCNC(=O)c1ccc(OCC(=O)Nc2ccccc2C(F)(F)F)c(OC)c1,nt,i,0.99,-11,123,99,-7

# An excerpt from above in order of length of the SMILES, high to low:
SMILES,GALR2 agonist,HSV augment,HSV augment primary fold,INS promoter inh,INS promoter inh cell count,RGS16-Gao HTS,PKD1 kinase inh
C#CCO[C@@H]1C[C@H](n2cnc3c(=O)[nH]c(NC(=O)C(C)C)nc32)O[C@@H]1CO,nt,i,0.83,nt,nt,80,nt
COc1cc(/C=N/NC(=O)CC23CC4CC(CC(C4)C2)C3)cc(Br)c1OCC(=O)N(C)C,1.5,i,0.68,15,85,100,-7
CCN(CC)CCCNC(=O)c1ccc(OCC(=O)Nc2ccccc2C(F)(F)F)c(OC)c1,nt,i,0.99,-11,123,99,-7
Cc1ccc2oc(-c3ccc(NC(=O)c4cccnc4)cc3)nc2c1,1.7,i,0.97,-9,156,102,5
Cc1nc2c3cc(F)ccc3n(Cc3ccccc3)c2s1,0.9,i,0.62,53,76,137,-2
